Screening results as filed in PubChem.
TRPML1 blocker – blocks the human TRPML1 channel; TRPML1-inducible cells, Ca2+ dye fluorescence, FDSS; hits give low values; inhibition of EC80 agonist-evoked calcium signal; Q9GZU1; activity change, negative = inhibition, % (test concentration not listed); 0.02% of 390,000 active; in the data active means activity change below about -50%; inconclusive means about -30% to -50%; inactive means above about -30%;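 further: stimulus is agonist 54-4 at its EC80 concentration; on the % scale 0 is the no-effect control and ±100 the full control effect; compound concentration not given in the record; the text of the record puts the active cut at -80%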
Target sequence (Q9GZU1 whole entry, looked up): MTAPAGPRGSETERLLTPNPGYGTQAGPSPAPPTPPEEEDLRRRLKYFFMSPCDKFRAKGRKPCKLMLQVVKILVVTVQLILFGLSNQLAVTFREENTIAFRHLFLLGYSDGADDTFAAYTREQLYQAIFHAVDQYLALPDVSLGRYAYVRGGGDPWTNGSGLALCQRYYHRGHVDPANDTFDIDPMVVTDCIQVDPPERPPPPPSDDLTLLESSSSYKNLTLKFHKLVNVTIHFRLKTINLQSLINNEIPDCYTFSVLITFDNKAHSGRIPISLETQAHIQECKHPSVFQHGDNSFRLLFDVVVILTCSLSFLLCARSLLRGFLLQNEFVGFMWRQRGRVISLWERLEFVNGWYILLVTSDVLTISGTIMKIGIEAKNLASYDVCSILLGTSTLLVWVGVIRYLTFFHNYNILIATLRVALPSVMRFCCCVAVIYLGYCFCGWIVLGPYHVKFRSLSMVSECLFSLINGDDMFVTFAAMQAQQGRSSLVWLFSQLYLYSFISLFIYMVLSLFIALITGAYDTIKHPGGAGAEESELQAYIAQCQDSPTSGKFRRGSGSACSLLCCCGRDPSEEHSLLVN
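Tet-induced TRPML1-DL cells loaded with Ca8 no-wash calcium dye were read kinetically on FDSS. Compound addition was followed by EC80 agonist 54-4 (4 uM final); inhibition was read over 110 s.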
gsp antag – gsp mutant antagonism. gsp-mutant cells, cAMP HTRF, 30 min; control for the full effect not named in the record. Potency, µM (titrated, usually from 76.9 µM), without a hit: top-dose activity change, negative = inhibition, most hits filed as inhibitors. 0.4% of 340,000 active; active = falling curve of any shape with a large fitted effect; inconclusive = falling curve, mostly with a smaller effect; inactive = flat or rising curve; cell line not stated here;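 further: intracellular cAMP measured with PDE inhibitor Ro 20-1724 present during compound exposure; potency means the concentration at half of the fitted maximal effect; on the % scale 0 is the no-effect control and ±100 the full control effect; nearly all actives have a fitted effect of over 65% in size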
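HTRF cAMP read-out (cAMP-d2 plus anti-cAMP antibody-K in lysis buffer, 30 min RT). Before lysis, cells are exposed to compounds with […] for 30 min at 37C in DPBS containing Ca/Mg, BSA and Tween 20.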
ClpP mod – qHTS Assay for Activators of ClpP. ATP-dependent Clp protease proteolytic subunit (Bacillus subtilis (strain 168)), P80244. purified B. subtilis ClpP, FRET peptide cleavage, 20 min. Potency, µM (highest dose often 57.5 µM), without a hit: top-dose activity change, negative = active. 1.9% of 340,000 active; active = well fitted falling curve with a large enough effect; inconclusive = small, poorly fitted or top-dose-only effect; inactive = no such curve, though single readings can be large or run the other way; further: potency means the concentration at half of the fitted maximal effect; the source files actives as falling curves though it sought activators and does not explain the sign; nearly all actives have a fitted effect of over 65% in size; many hits overshoot -100%
Target sequence (P80244 whole entry, looked up): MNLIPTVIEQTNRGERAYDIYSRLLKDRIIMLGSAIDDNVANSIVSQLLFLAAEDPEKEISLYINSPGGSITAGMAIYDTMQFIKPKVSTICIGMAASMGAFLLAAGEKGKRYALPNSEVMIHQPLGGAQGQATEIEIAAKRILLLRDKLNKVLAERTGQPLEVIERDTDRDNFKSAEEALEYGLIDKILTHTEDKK
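FRET quenching reversal measured ClpP activation: 10 microg/mL B. subtilis ClpP at pH 8 with the FRET-FV decapeptide, read at 430 nm after 320 nm excitation. The 20-min minus 0-min signal was scaled between DMSO/no-enzyme wells and ADEP (5.8 microM final).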
TRPML1 agonist – agonists of human TRPML1 channel; Q9GZU1; TRPML1-expressing cells, Ca2+ dye fluorescence, FDSS; host cell line not named in the record; reference of the full effect not given here; activation, % (no concentration beside the values); 0.12% of 410,000 active; in the data active = activation above about 50%; inconclusive = about 30% to 50%; inactive = below about 30%; further: 0% is about no effect; the text of the record puts the active cut at 80%
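Tet-induced TRPML1-DL cells, 1,500 per well, cultured overnight, were loaded with a no-wash Ca2+ dye for 45–90 min. Calcium fluorescence was recorded on the FDSS for 110 s after compound addition, before the EC80 agonist (4 uM 54-4) was added.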
Menin MLL FP FL – inhibitors of human menin-MLL interaction, wild-type MLL peptide | Fluorescence polarization, fluorescein-MLL peptide displacement from menin | FP activity change, % at 61.4 µM | 290,000 tested, under 10 active | AID 1766; inconclusive = falling polarisation curve, or a change in total fluorescence; inactive = total fluorescence flat and polarisation flat or rising; no compound was filed as active; the % refers to the polarisation; negative = inhibition;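 further: % of control where 0% means no effect; inhibitors lower the polarisation; unlabelled MLL peptide was the positive control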
gsp ag – gsp mutant agonism; gsp mutant cells, cAMP HTRF, 30 min; control for the full effect not named in the record; Potency, µM (highest dose often 76.9 µM), for the others: top-dose activation (cAMP increase), actives largely listed as activators; 0.13% of 340,000 active; AID 624287; active = well fitted activation curve with a large enough effect; inconclusive = small, poorly fitted or top-dose-only effect, or another doubt; inactive = no such curve, though single readings can be large or run the other way; cell line not stated here;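 further: phosphodiesterase inhibitor Ro 20-1724 added with compounds to block cAMP breakdown; potency means the concentration at half of the fitted maximal effect; nearly all actives have a fitted effect of over 60% in size; about a fifth of the inactives were tested at one dose only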
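Cells in DMEM/10% FBS with G418 were pretreated with compounds in DMSO plus […] (300 uM stock) for 30 min at 37C. cAMP was measured by HTRF (cAMP-d2 plus anti-cAMP antibody-K) after 30 min at room temperature.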
* marks the source's active call; other numbers are inactive results; ? = inconclusive; . = no result given; & = joins results of further samples; [ ] = dose if it differs, or a comment. Rows were taken by chance; overall some 2.1% were active at least once.

SMILES	TRPML1 blocker	gsp antag	ClpP mod	TRPML1 agonist	Menin MLL FP FL	gsp ag
Cc1cc(Br)c(S(=O)(=O)NCc2ccncc2)cc1C	12	0%	-4.8%	-0.1	0.7	-2%
CCCCN1C(=O)C(CC(=O)NC2CCCC2)CC(C(=O)N(CC)CC)=C1C (configuration not stated)	0	.	-0.4%	-0.5	.	-6%
CCS(=O)(=O)N1CCC(C(=O)OCC(=O)c2ccc(Br)cc2)CC1	-5	30%	0.2%	0.1	.	11%
C/C(=N\NC(=O)COc1ccc(C(C)(C)C)cc1)c1ccccc1	-3	.	.	1.6	0.2	17%[15.4 µM]
C=CCN1C(=O)/C(=C/N(C)C)S/C1=N\S(=O)(=O)c1cccs1	10	.	1.2%	-0.8	.	-63%[inhibitor]
CC1CCCN(CCOCCOc2ccc(Br)cc2Cl)C1 (configuration not stated)	-1	15%	0.2%	0.1	-0.2	-17%
CC(C)n1nnnc1SCC(=O)NCc1ccc2c(c1)OCO2	1	6%	0.6%	0.8	0.4	-27%
Nc1cc(N)nc(SCC(=O)c2ccc3c(c2)NC(=O)CO3)n1	-3	14%	.	0.0	-3.8	-15%
O=C(N/N=C\c1ccc(S(=O)(=O)O)o1)c1ccc2c(c1)OCO2	-9	-4%	-2.2%	0.1	-1.6	-25%
CCC12CN3CC(CC)(CN(C1)C3c1ccc(OC(C)C)cc1)C2=O (configuration not stated)	13	-6%	-0.5%	-0.9	4.0	-11%
COc1ccccc1NS(=O)(=O)c1cccc(NC(=O)c2[nH]c(C)c(C(C)=O)c2C)c1	0	?	-1.3%	0.3	-0.6	-1%
Cc1noc(NS(=O)(=O)c2ccc(NC(=O)C(C)(C)C)cc2)c1C	-17	9%	.	0.3	-4.7	-2%
COc1ccc(C(=O)Nc2ccccc2N2CCOCC2)cc1S(=O)(=O)N1CCCC1	2	4%	-6.3%	0.0	.	-33%[inhibitor]
CC(=O)c1cccc(NC(=O)c2cc(C)no2)c1	1	0%	0.0%	-0.9	4.6	27%
CCc1nc2ccc(F)cc2c(C(=O)NC2CCCCC2C)c1C (configuration not stated)	9	-13%	0.5%	1.2	-2.1	8%
COc1ccc(S(=O)(=O)Nc2cc3c4c(c2)CCN4C(=O)CC3)cc1C	16	-11%	.	-0.9	.	14%[15.4 µM]
COc1ccc(S(=O)(=O)N2CCN(CC(=O)Nc3sccc3C(N)=O)CC2)cc1OC	-2	-12%	0.2%	-0.6	.	-19%
CCOC(=O)C1CCN(c2c(NCc3ccc(N(C)C)cc3)c(=O)c2=O)CC1	6	-13%	0.3%	0.7	1.8	18%
Cc1ccc(CNc2oc(COc3ccccc3Cl)nc2C#N)cc1	13	5%	-0.4%	-0.3	-2.3	5%
O=C(COc1ccc(-n2ccnc2)cc1)Nc1cccc(F)c1	10	-8%	-0.2%	-0.3	2.4	0%
Cc1c(NC(=S)N/N=C/c2ccc([N+](=O)[O-])cc2O)c(=O)n(-c2ccccc2)n1C	-6	5%	-2.2%	1.6	1.5	-48%
Cc1ccc(S(=O)(=O)NCC(=O)OCC(=O)N2CCN(C(=O)c3ccco3)CC2)cc1C	0	8%	1.9%	-0.9	.	16%
O=C(NNC(=O)C1COc2ccccc2O1)c1cccc([N+](=O)[O-])c1 (configuration not stated)	0	3%	.	0.4	1.1	-12%
CN(C)CCO[C@@H](c1ccc(Cl)cc1)c1ccccn1	-14	13%	-0.3%	-0.7	4.6	-22%
COc1ccc(-c2nn(-c3ccccc3)cc2C#N)cc1	-4	-2%	?	2.1	3.3	22%

(list continues)
SMILES	TRPML1 blocker	gsp antag	ClpP mod	TRPML1 agonist	Menin MLL FP FL	gsp ag
Cc1ccc(C)c(OCCC(=O)Nc2ccc(S(=O)(=O)N3CCCC3)cc2)c1	-4	-15%	0.7%	-1.1	.	31%
COc1ccccc1N1CCN(C(=O)COc2cccc(C)c2C)CC1	-1	-6%	.	0.2	2.6	0%
O=Cc1ccnc(-c2ccc(OC(=O)c3ccco3)cc2)n1	13	6%	-5.4%	0.6	2.6	9%[15.4 µM]
Cc1ccc(S(=O)(=O)NCCC(=O)NCc2cccnc2)cc1	-2	11%	1.1%	0.0	.	-7%
COc1ccc(NC(=O)CCc2nc3c(C)nn(-c4ccc(C)cc4)c3n(C)c2=O)cc1	-14	.	-1.5%	-0.2	.	.
Clc1ss/c(=N\c2ccccn2)c1Cl	-20	-1%	-0.5%	-0.6	3.5	-19%
Cc1ccc(-c2nc3cccnc3s2)cc1NC(=O)C1c2ccccc2Oc2ccccc21	0	4%	-9.6%	0.1	11	?
CN(NC(=O)c1ccccc1)C1=NS(=O)(=O)c2ccccc21	13	3%	.	-0.2	-2.9	7%[15.4 µM]
CCOc1ccc(NC(=O)CN(C)C(=O)c2ccc(N3CCOCC3)c([N+](=O)[O-])c2)cc1OCC	4	-3%	0.5%	-0.3	.	3%[15.4 µM]
CCCCCCN1C[C@H](O)[C@@H](n2cc(C3CC3)nn2)C[C@@H]1c1ccccc1	24	.	-4.2%	0.0	.	?
CCOC(=O)N1CCN(CC(=O)Nc2ccc(OC)cc2)CC1	-6	15%	-0.4%	-0.7	2.8	14%
C1CCc2c(nnc3c2-c2nonc2CC3)C1	-8	3%	-5.8%	-0.2	4.7	-25%
COC(=O)c1ccc(Nc2nc(-c3ccncc3)nc3ccccc23)cc1	-9	-3%	-19%	1.3	-0.9	20%
O=C(Nc1ccc(Cl)c(Cl)c1)OCCNC(=O)c1cccc(Cl)c1	50	-6%	4.8%	0.6	4.4	-4%
COc1ccc2c(c1)c1c(c(=O)n(-c3ccccc3)c(=O)n1CC(=O)NCCC1=CCCCC1)n2C	-6	.	4.3%	0.3	.	.
COC(=O)CC1Oc2ccccc2N(Cc2ccccc2)C1=O (configuration not stated)	32	2%	-0.4%	3.6	-2.1	-17%
COc1cccc(NC(=O)CCNC(=O)Cn2ccc3ccccc3c2=O)c1	-2&-1	14%	-21%&-11%	-0.5&0.2	-1.0	-41%[inhibitor]
C=CCOC(=O)C1=C(C)NC(C)=C(C(=O)OCC=C)C1c1cn(-c2ccccc2)nc1-c1ccco1	26	-13%	4.1%	1.0	2.3	1%
COC(=O)C1=C(C)N(Cc2ccco2)C(=O)C1	-1	8%	-0.1%	-0.7	0.7	2%
CC(CN1C(C)CCCC1C)OC(=O)c1ccccc1Br (configuration not stated)	14	10%	.	0.0	1.4	-22%
CN(/C=C/C(=O)C(F)(F)F)Cc1ccccc1	-7	-5%	-0.1%	-0.5	2.0	3%
Cc1cccc(C(=O)N2CCc3cc(CNC(=O)c4ccc(Br)o4)ccc32)c1	29	.	-6.0%	4.5	.	.
O=C(COc1ccccc1F)Nc1ccc(-c2nc3ccccc3s2)cc1	7	.	4.6%	0.3	.	.
CC(=O)CSc1ccc(C(=O)O)cn1	24	7%	-2.8%	0.7	4.9	-27%
O=C(Cn1c(=O)oc2ccccc21)Nc1ccc(S(=O)(=O)N2CCCCC2)cc1	2	3%	0.1%	-0.4	0.0	3%

Next compounds
SMILES	TRPML1 blocker	gsp antag	ClpP mod	TRPML1 agonist	Menin MLL FP FL	gsp ag
COCCN(C(=S)Nc1ccccc1C)C(C)c1cccs1 (configuration not stated)	0	7%	-2.4%	-0.5	5.0	-5%
CC(C)c1ccc(C(C)NC(=O)C2CCCC2)cc1 (configuration not stated)	.	12%	-1.3%	.	-2.9	-160%
CCCCn1c(SCC(=O)c2ccc3c(c2)OCCO3)nnc1-c1ccco1	-6	-10%	-1.9%	-0.1	2.1	-36%[inhibitor]
Cc1ccc2nc(-c3ccsc3)c(Nc3ccc(Cl)cc3)n2c1	32	.	?	3.4	.	.
CCCCNc1c(-c2cccc(SC3CCCCC3)c2)nc2ccc(Cl)cn12	3	-6%	-14%&-5.0%	-0.3&0.2	.	23%
Cc1ccc(-n2nc(C)c(/C=N/NC(=O)c3cccnc3)c2Cl)cc1	12	-9%	-2.0%	0.8	5.5	-64%[inhibitor]
Cn1cc(/C=C(\NC(=O)c2ccccc2)C(=O)NCCCn2ccnc2)c2ccccc21	-11	.	-2.1%	-0.6	.	?
Cc1ccccc1CNC(=O)Cn1nc(C)c2nn(-c3ccc(Cl)cc3)c(C)c2c1=O	24	.	-14%	-0.3	.	.
CCCOc1ccc(C(=O)NCc2cccnc2)cc1	11	-5%	0.9%	-0.4	4.0	-36%[inhibitor]
CN(Cc1ccccc1)C(=S)NC(=O)C1CCCCC1	3	-4%	-0.5%	0.8	-0.9	-12%
O=C(C1CCCN(S(=O)(=O)c2ccccc2[N+](=O)[O-])C1)N1CCCC1 (configuration not stated)	15	-6%	-5.4%	-0.5	1.0	-46%
CCOc1ccc(/C=C2/SC(=S)N(CCC(=O)Nc3ccc(C(=O)O)cc3)C2=O)cc1	-1	-10%	-3.1%	0.0	0.6	-3%
COc1cccc(CNC(=O)C2CCN(c3nnc(-n4c(C)ccc4C)s3)CC2)c1OC	-12	.	6.8%	0.7	.	.
CC(C)CC(CO)N1CCN(C(=O)c2ccccc2)CCC1=O (configuration not stated)	-14	11%	2.0%	-0.2	.	.
Cc1cc(=S)nc(-c2ccccn2)[nH]1	11	-1%	-4.9%	0.1	4.0	9%[15.4 µM]
Cc1ccc(NC(=O)CNC(=O)c2ccc(C)s2)nc1	-4	6%	1.1%	0.1	.	-8%
COc1ccccc1CNC(=O)COC(=O)c1ccccn1	2	3%	.	-0.1	.	14%[15.4 µM]
N#CCc1nn2c3c(cnc2c1C#N)C(=O)CCC3	-2	-4%	.	6.0	?	2%[15.4 µM]
O=C1/C(=C\c2ccc(Br)cc2)SC(=S)N1NS(=O)(=O)c1ccccc1	4	-18%	.	-0.5	-3.7	-6%[15.4 µM]
O=C(O)c1cccc(S(=O)(=O)N2CCN(Cc3ccc4c(c3)OCO4)CC2)c1	-6	-2%	.	-0.1	0.6	5%
Cn1c2ccccc2c(=O)c2c(=O)n(-c3ccc(F)cc3)c(-c3cccs3)nc21	18	-6%	.	-0.7	4.6	-34%
COc1ccc(CCNC(=O)CCc2c(C)c3cc4c(C)coc4c(C)c3oc2=O)cc1OC	9	.	?	1.2	.	.
O=C(O)CS(=O)(=O)CC(=O)O	13	-4%	-0.9%	1.0	2.8	3%
Cc1ccccc1-n1c(C)nnc1SCC(=O)NNC(=O)c1ccccc1	3	17%	-1.3%	-0.7	0.9	27%
Clc1cccc(/C=N/N2CCN(Cc3ccccc3)CC2)c1	2	-3%	-0.2%	-1.5	0.1	-53%[inhibitor]
CCCCNC(=O)N1CCN(C(=O)C2CCCO2)CC1 (configuration not stated)	8	11%	.	-0.2	3.8	-23%
O=C(COC(=O)CNC(=O)c1ccccc1)Nc1ccc(S(=O)(=O)N2CCOCC2)cc1	16	-3%	0.7%	-0.2	2.4	22%[15.4 µM]
Cc1cccc(OC(=O)c2cc(-c3ccc4c(c3)OCCO4)on2)c1C	4	.	?	0.4	.	.
